# Compound activity: PubChem, Johns Hopkins Ion Channel Center
# KCNQ2 pot – potentiators of rat KCNQ2 potassium channel; Potassium voltage-gated channel subfamily KQT member 2 (Rattus norvegicus), O88943; CHO-K1 KCNQ2, FluxOR thallium flux fluorescence; hits give high values; B-score at 10 µM; 0.54% of 310,000 active; AID 2239, 2010;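 active = fluorescence ratio B-score at least 3 SD of library B-scores, with initial fluorescence B-score within 3 SD, cut at about 5.3 in these data; same plate scores as AID 2156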;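 also: B-score of peak minus minimum over baseline fluorescence ratio after K+ and Tl+ stimulus; positive B-score means potentiation of KCNQ2 with more thallium influx and brighter signal; only the inactives scoring about 0 or higher are listed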
# Target sequence (O88943 whole entry, looked up): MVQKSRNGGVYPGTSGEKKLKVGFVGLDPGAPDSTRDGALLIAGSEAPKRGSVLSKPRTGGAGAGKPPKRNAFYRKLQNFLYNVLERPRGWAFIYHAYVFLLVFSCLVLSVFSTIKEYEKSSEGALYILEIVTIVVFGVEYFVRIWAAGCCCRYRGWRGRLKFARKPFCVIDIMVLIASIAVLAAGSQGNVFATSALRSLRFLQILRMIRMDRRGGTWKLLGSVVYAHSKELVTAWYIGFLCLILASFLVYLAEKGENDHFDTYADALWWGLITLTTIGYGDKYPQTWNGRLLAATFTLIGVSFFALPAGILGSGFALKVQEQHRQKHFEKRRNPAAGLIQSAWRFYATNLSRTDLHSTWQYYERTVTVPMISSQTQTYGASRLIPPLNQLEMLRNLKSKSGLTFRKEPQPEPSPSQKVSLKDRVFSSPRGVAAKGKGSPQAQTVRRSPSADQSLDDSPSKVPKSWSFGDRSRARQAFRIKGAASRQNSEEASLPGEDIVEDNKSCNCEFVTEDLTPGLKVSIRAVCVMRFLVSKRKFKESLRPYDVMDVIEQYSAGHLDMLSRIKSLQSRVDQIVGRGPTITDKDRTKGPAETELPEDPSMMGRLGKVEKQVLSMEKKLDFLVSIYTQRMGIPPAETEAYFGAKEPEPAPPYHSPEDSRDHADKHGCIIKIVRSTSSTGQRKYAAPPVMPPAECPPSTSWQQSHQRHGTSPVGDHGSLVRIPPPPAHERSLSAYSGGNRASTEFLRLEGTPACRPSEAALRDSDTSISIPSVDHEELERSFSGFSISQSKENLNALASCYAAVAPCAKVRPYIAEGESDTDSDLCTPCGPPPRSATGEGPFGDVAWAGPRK
# KCNQ2 pot baseline – recorded beside KCNQ2 pot, whose call it bears; B-score; compound at 10 µM; measured here: initial fluorescence intensity artifact check;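 brightness before thallium and not channel activity; 0 = typical well and far values either way flag optical interference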
# An asterisk follows results filed as active. The list is partial; rates above refer to the full screens.
entry	KCNQ2 pot	KCNQ2 pot baseline	Structure
1	0.6	-0.4	Cc1c(N=C2NC(=O)C(CC(=O)Nc3ccc(Cl)cc3)S2)c(=O)n(-c2ccccc2)n1C (stereo not given)
2	0.21	0.2	CP(=O)(Nc1cc(Cl)ccc1Cl)c1nc2c(s1)CCCC2 (stereo not given)
3	2.6	-0.66	O=C(N/N=C/c1ccc[nH]1)c1ccc2c(c1)OCO2
4	0.8	-0.45	COc1ccc(CNC(=O)C2C3C=CC4(CN(Cc5cccnc5)C(=O)C24)O3)cc1 (stereo not given)
5	0.35	1.2	COc1ccccc1C(=O)NCC(=O)N1CCN(S(=O)(=O)c2ccc3c(c2)OCCO3)CC1
6	0.79	-1.4	CN(C)c1ccc(/C=C2\CCCCC2=O)cc1
7	0.27	-0.08	COc1ccccc1NC(=O)c1ccc(NC(=O)CSc2nncn2C)cc1
8	0.19	-0.22	O=C(Nc1nncs1)C12CC3CC(CC(Cl)(C3)C1)C2
9	1.1	0.18	CCOC(=O)Cn1cnc2c(nnn2-c2ccc(OC)cc2)c1=O
10	1.3	0.35	Cc1c(C)c2c(OCC(=O)N[C@@H](CC(C)C)C(=O)O)cc3c(c2oc1=O)CCC(C)(C)O3
11	0.51	0.65	O=C(COC(=O)c1ccccn1)NNC(=O)c1ccc([N+](=O)[O-])cc1
12	0.38	-0.35	COc1ccc(/C=N/Nc2nc3ccccc3[nH]2)c(OC)c1OC
13	0.25	-1.7	CC1CCN(Cc2c(C(=O)N/N=C/c3cccc(C(F)(F)F)c3)nnn2-c2nonc2N)CC1
14	0.04	1.7	CN1CCc2c(sc(NC(=O)c3ccc(S(=O)(=O)N4CCOCC4)cc3)c2C(N)=O)C1
15	2.8	-1.4	CCc1cccc(NC(=O)C2CCCC2)c1
16	1.2	-1.1	O=[N+]([O-])c1cccc(-c2nnn(C34CC5CC(CC(C5)C3)C4)n2)c1
17	2.3	0.2	COc1ccc(OC)c(NC2=C(Cl)C(=O)N(Cc3ccccc3)C2=O)c1
18	1.2	-0.86	CCCCCn1nc(C)c2c(C)cc(=O)[nH]c21
19	1	-2.1	C/C(=N\OC(=O)c1c(-c2ccccc2Cl)noc1C)c1ccncc1
20	0.48	1.1	CCOc1ccccc1NC(=O)CCNC(=O)Cn1ccc2ccccc2c1=O
21	0.23	0.7	O=C1[C@H]2[C@H](C=CC[C@H]2C(=O)N2CCOCC2)CCN1Cc1ccc(Cl)c(Cl)c1
22	0.79	0.57	Cc1ncc([N+](=O)[O-])n1CC(=O)NC(C)(C)C
23	0.42	-0.2	CSc1cccc(NC(=O)C2CCCN(c3ncnc4c3nc3n4CCCCC3)C2)c1 (stereo not given)
24	0.51	-0.25	O=C(Nc1nc(N2C(=O)c3ccccc3C2=O)n(-c2ccccc2)n1)c1ccc(Cl)cc1
25	1.2	0.33	O=C(N/N=C/c1ccco1)c1cc(-c2cccs2)[nH]n1
26	0.82	1.2	CCCCc1ccc(NC(=O)CN(C)CC(=O)Nc2ccccc2Cl)cc1
27	0.95	0.09	COc1ccc(-c2nn(-c3ccccc3)cc2CO)cc1OC
28	0.04	-0.38	O=C(COC(=O)c1cccnc1)Nc1ccccc1
29	0.33	1.8	CCc1ccccc1N(C(=O)c1snc(C(N)=O)c1N)C(C(=O)NCC1CCCO1)c1ccc(OC)c(OC)c1 (stereo not given)
30	0.3	0.85	CC(C)(C)OC(=O)N1CCCC1C(=O)N1CCc2ccccc21 (stereo not given)
31	0.17	0.25	Cc1ccc(N2C(=O)NC(NC(=O)C(C)(C)C)(C(F)(F)F)C2=O)cc1C (stereo not given)
32	0.03	0.14	Cc1ccc(S(=O)(=O)N2CCN(c3ncccn3)CC2)c(C)c1
33	1.1	0.98	Cc1ccc(C)c(N(C(=O)CNC(=O)c2ccco2)C(C(=O)NCC2CCCO2)c2ccccc2)c1 (stereo not given)
34	1.1	0.02	COc1ccc(C/C(C)=N/NC(=O)c2cc(C)oc2C)cc1
35	0.25	-0.24	CC(=O)c1ccc(N2CCN(C(=O)CCC(=O)Nc3ccc4nc(N5CCN(C)CC5)cc(C)c4c3)CC2)cc1
36	1.2	0.64	Cc1cc(S(=O)(=O)NCc2ccncc2)c(C)cc1Br
37	1.7	-0.57	Cc1nnsc1SCCNC(=O)c1c(F)cccc1F
38	0.77	1.2	C=CCn1c(=O)n2ncnc2c2c3c(sc21)CCCC3
39	1.7	-0.34	COc1cc(NC(=O)c2cccs2)ccc1NC(=O)c1ccco1
40	0.4	-0.05	O=C(Nc1cccc(-c2cnc3ccccc3n2)c1)c1cccc(NC(=O)c2ccco2)c1
41	0.18	-0.41	CN(C)C(=O)NCc1ccc(S(N)(=O)=O)cc1
42	0.67	0.76	COc1ccc2oc(C(=O)OCC(=O)/C(C#N)=C(\C)N)c(C)c2c1
43	1.1	-1.2	NC(=O)[C@H]1CC2(CC(c3cccc(NC(=O)CC(c4ccccc4)c4ccccc4)c3)=NO2)CN1C(=O)CC(c1ccccc1)c1ccccc1 (stereo not given in full)
44	4.7	1.7	Cc1ccc(/C=C/C(=O)NCc2ccc3c(c2)OCO3)o1
45	0.08	-0.46	COc1ccccc1Nc1nn2c(=O)c3ccc(C(=O)NCc4cccnc4)cc3nc2s1
46	0.08	0.56	CCc1ccc(NC(=O)CSc2nnc(-c3cnccn3)n2Cc2ccco2)cc1
47	0.13	-1.3	O=P(OC1CCCCC1)(OC1CCCCC1)C(O)c1cccnc1 (stereo not given)
48	0.07	2.4	O=C(c1scc2c1CCCC2)N1CCCCC1
49	0.04	-0.32	O=C(/C=C/c1ccc2c(c1)OCO2)c1ccc[nH]1
50	0.28	0.91	CCOC(=O)c1c(O)c2cccc3c2n(c1=O)CC3
51	0.93	2.2	CC(C)(C)c1cc(C(=O)NNC(=O)Nc2ccccc2)n(Cc2ccccc2)n1
52	0.28	0.75	Cc1cc(C)c(C)c(OCC(=O)O/N=C(\N)c2cccnc2)c1
53	0.02	-0.67	O=C(NNc1nc2c(F)cc(F)cc2s1)C1COc2ccccc2O1 (stereo not given)
54	1.2	0.05	CCCCn1c(=N)n(CC(=O)c2ccc(OC)cc2)c2ccccc21
55	3.5	1.2	COc1ccc(C(=O)CSc2nc3ncccc3[nH]2)cc1OC
56	2	-1.6	CCc1nnc(NC(=O)CSc2ccc(-c3ccco3)nn2)s1
57	0.02	-1.3	CCc1c(C)c2ccc(OC(C)C(=O)NC(Cc3c[nH]c4ccc(O)cc34)C(=O)O)c(C)c2oc1=O (stereo not given)
58	0.14	0.39	Cc1ccc(Cc2nnc(SCC(=O)Nc3ccccc3C)[nH]c2=O)cc1
59	2.2	-1.9	COc1ccc(S(=O)(=O)N2CC3CCCN3c3cc(C(F)(F)F)ccc32)cc1 (stereo not given)
60	1.6	-0.27	CC(O)C(NS(=O)(=O)c1ccc(Cl)cc1)C(=O)OCc1nnc(-c2ccccc2)o1 (stereo not given)

# 4 compounds picked at random from the list so far, as already listed:
entry	KCNQ2 pot	KCNQ2 pot baseline	Structure
52	0.28	0.75	Cc1cc(C)c(C)c(OCC(=O)O/N=C(\N)c2cccnc2)c1
58	0.14	0.39	Cc1ccc(Cc2nnc(SCC(=O)Nc3ccccc3C)[nH]c2=O)cc1
60	1.6	-0.27	CC(O)C(NS(=O)(=O)c1ccc(Cl)cc1)C(=O)OCc1nnc(-c2ccccc2)o1 (stereo not given)
49	0.04	-0.32	O=C(/C=C/c1ccc2c(c1)OCO2)c1ccc[nH]1

# Remaining list, next part.
entry	KCNQ2 pot	KCNQ2 pot baseline	Structure
61	0.9	-3.2	O=C(Nc1ccccc1Cl)c1ccc([N+](=O)[O-])o1
62	0.12	-0.8	Clc1cccc(Oc2ncccn2)c1
63	1.2	-0.04	CCOC(=O)Cc1csc(NC(=O)C(NC(=O)C2CCC(C)CC2)C(C)C)n1 (stereo not given)
64	3	-0.24	CN(C)CCCSc1nc(-c2ccccc2)nc2c1CCC2
65	0.02	0	Cn1nnnc1SCC(=O)NC1CCCCC1
66	1.4	0.11	CCSC1=C(C#N)C2(CCCCC2)C2=C(CC(C)(C)CC2=O)N1
67	0.03	0.21	CCOC(=O)c1ccc(NC(=O)CSc2nc3c(c(=O)n2-c2ccccc2OC)SCC3)cc1
68	1.1	-0.11	C[C@@H]1NC(=O)c2cc([N+](=O)[O-])cc(I)c2OCC[C@@H](C(N)=O)NC(=O)[C@H](CCCCN)NC1=O
69	0.99	-0.76	O=C(OCC(=O)N1CCN(C(=O)c2ccco2)CC1)c1ccccc1O
70	0.61	-0.98	CCCN1C(=O)C(NC(=O)c2ccncc2)(C(F)(F)F)C2=C1CC(C)(C)CC2=O (stereo not given)
71	0.19	0.45	COc1ccc(C(C(=O)NC(C)(C)C)N(CC2CCCO2)C(=O)CCC(=O)Nc2cc(C)on2)cc1 (stereo not given)
72	0.6	1.6	CC(=O)N(C)c1ccc(NC(=S)NCC(C)C)cc1
73	2.3	1.6	CSc1nncn1/N=C/c1ccccc1F
74	0.62	-1.3	Cc1nn(Cc2ccc([N+](=O)[O-])cc2)c(=O)n1-c1ccccc1Cl
75	0.03	-1.3	CC1Cc2ccccc2N1C(=O)CSc1nc2ccccc2n1CC(=O)N1CCOCC1 (stereo not given)
76	0.04	2.4	Cc1ccc(C)c(/C=N/n2cc(-c3ccccc3)[nH]c2=S)c1
77	1.3	-0.17	CCCCOC(=O)c1ccc(OC(=O)N2CCOCC2)cc1
78	1.9	-0.1	COc1ccc(C2C(C(=O)N3CCOCC3)CCC(=O)N2c2cc(OC)c(OC)c(OC)c2)cc1 (stereo not given)
79	1.2	1.8	CC(C)C(NS(=O)(=O)c1cccs1)C(=O)NCCN1CCN(c2ccccc2)CC1 (stereo not given)
80	0.58	-0.06	COc1cccc(-c2nn(C)c3sc(C(=O)NCc4ccccn4)cc23)c1
81	0.3	0.86	Cc1ccc(NC(=O)/C(=C\c2ccc3c(c2)OCO3)NC(=O)c2ccco2)cc1
82	1.9	-0.21	CCn1c(COc2ccccc2C)nnc1SCc1nc2ccccc2c(=O)[nH]1
83	0.31	-0.01	CC1CN(C(=O)COc2coc(CN3CCc4ccccc4C3)cc2=O)CC(C)O1 (stereo not given)
84	0.18	-1.4	Fc1ccc(NCc2nnc3n2CCCCC3)cc1
85	0.32	-0.35	COc1ccc(-c2ccc(SCC(=O)N3CCOCC3)nn2)cc1
86	0.09	-0.23	CCOC(=O)C1CCN(Cc2nc(-c3ccc(OC)c(OC)c3)no2)CC1
87	0.18	-0.6	Cn1cc([N+](=O)[O-])c(C(=O)N/N=C/c2cc3c(cc2Br)OCO3)n1
88	0.4	-3	Cc1ccc(NC(=O)c2ccc3c(c2)nnn3C)cc1
89	1.8	0.5	Nc1nc(SCc2nc3sc4c(c3c(=O)[nH]2)CCCC4)n[nH]1
90	1.4	2.9	O=C(CCNC(=O)c1ccco1)Nc1ccc(Cl)c(C(F)(F)F)c1
91	2.2	0.45	O=C(O)CSc1nc2sc3c(c2c(=O)n1Cc1ccccc1)CCCCC3
92	8.4*	-0.02*	CCn1nc(C(=O)OCc2c(C)noc2C)c2ccccc2c1=O
93	0.38	0.87	Cc1nc(CNS(=O)(=O)c2cc([N+](=O)[O-])ccc2C)cs1
94	1.1	-0.47	CS(=O)(=O)N1CCc2cc(C(=O)Nc3ccccc3Cl)ccc21
95	0.65	1.1	CN(C)S(=O)(=O)c1ccc(Cl)c(NC(=O)CSc2nc3c(cc2C#N)C(=O)CC(C)(C)C3)c1
96	1.6	-1.4	CC(=O)Oc1ccc(C(=O)Nc2ccc(S(=O)(=O)NCC3CCCO3)cc2)cc1 (stereo not given)
97	0.69	0.64	Cc1cc(Cl)c(OCCOCCN2CCCCC2)c(Br)c1
98	1.1	-1.9	COc1ccc(/C=C/C(=O)OCC(=O)c2c(N)n(C)c(=O)n(C)c2=O)c(OC)c1
99	1.2	-1.1	CCc1ccc(C=NC23CN4CN(CN(C4)C2)C3)s1
100	2.1	-1.1	CC(C)S(=O)(=O)N1CCN(c2ccnc3cc(Cl)ccc23)CC1
101	0.3	-0.46	O=C(O)COc1c(-c2ccccc2)oc2ccccc2c1=O
102	0.02	0.62	O=C(NCC1CCCO1)c1cccc(Br)c1 (stereo not given)
103	0.19	1.1	COC(=O)c1ccc(S(=O)(=O)N2CCN(CCO)CC2)n1C
104	0.66	-0.59	COC(=O)C(=NNc1c(C)n(C)n(-c2ccccc2)c1=O)C(=O)OC
105	0.11	-1.2	Cc1ccc(S(=O)(=O)N(C)c2ccc(OC(C)C(=O)N3CCCC3)cc2)cc1C (stereo not given)
106	0.6	-0.09	O=C(Cc1ccccc1)NCC1CCCO1 (stereo not given)
107	0.01	-0.14	O=C(CNC(=S)N(CCCN1CCOCC1)Cc1cccs1)NC1CC1
108	0.67	0.75	Cc1cc2nnc(SCC(=O)N3CCCCC3)n2c(N)n1

# Six compounds out of the list above, arranged by the value under KCNQ2 pot, lowest first:
entry	KCNQ2 pot	KCNQ2 pot baseline	Structure
105	0.11	-1.2	Cc1ccc(S(=O)(=O)N(C)c2ccc(OC(C)C(=O)N3CCCC3)cc2)cc1C (stereo not given)
2	0.21	0.2	CP(=O)(Nc1cc(Cl)ccc1Cl)c1nc2c(s1)CCCC2 (stereo not given)
21	0.23	0.7	O=C1[C@H]2[C@H](C=CC[C@H]2C(=O)N2CCOCC2)CCN1Cc1ccc(Cl)c(Cl)c1
77	1.3	-0.17	CCCCOC(=O)c1ccc(OC(=O)N2CCOCC2)cc1
100	2.1	-1.1	CC(C)S(=O)(=O)N1CCN(c2ccnc3cc(Cl)ccc23)CC1
44	4.7	1.7	Cc1ccc(/C=C/C(=O)NCc2ccc3c(c2)OCO3)o1

# Additional structures follow.
entry	KCNQ2 pot	KCNQ2 pot baseline	Structure
109	0.45	-0.22	O=S(=O)(CCNCc1cccs1)c1ccc(Cl)cc1
110	1.1	-1.6	Cc1ccc(-c2cnc(-c3ccncc3)o2)cc1
111	0.2	-2	CC(=O)NC1C(Oc2ccc3c(C)cc(=O)oc3c2)OC(COC(C)=O)C(OC(C)=O)C1OC(C)=O (stereo not given)
112	1.2	0.16	COc1cc2cc(C(=O)N[C@@H](Cc3ccccc3)C(=O)O)n(C)c2c(OC)c1OC
